Screening data as filed in PubChem BioAssay.
ALR H2O2 inh: human ALR oxidase inhibition via reduced H2O2; P55789; purified ALR, DTT oxidation, H2O2 HRP-luminol luminescence; inhibition, % (test concentration not listed); hit rate 3.8% among 290,000; AID 485317;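 active means mean and each replicate at 75% or more; inconclusive means only one of the two met; inactive means neither met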;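 further: stock transfer was 7.5 nL into about 7.5 µL; 0% = neutral wells and 100% = wells with inactivated enzyme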
Target sequence (P55789 whole entry, looked up): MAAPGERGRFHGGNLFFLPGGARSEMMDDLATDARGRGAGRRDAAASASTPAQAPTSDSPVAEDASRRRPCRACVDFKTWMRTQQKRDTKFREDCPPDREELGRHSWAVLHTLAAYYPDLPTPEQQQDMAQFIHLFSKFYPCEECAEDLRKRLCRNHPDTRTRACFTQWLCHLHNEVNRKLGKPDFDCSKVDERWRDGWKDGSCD
Vif TR-FRET: HIV-1 Vif–A3G interaction blockers – biochemical, TR-FRET, GST-Vif 1-94, biotin-A3G peptide, dose response retest, primary screen (AID 1117319) | TR-FRET GST-Vif / biotin-A3G peptide binding; higher % means a stronger effect; test concentration not given here; strong numbers were not always called active | hit rate 0.57% among 260,000 | inhibition, %; hits with a dose series show IC50 in µM;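 active means above the screen mean plus three standard deviations and confirmed in dose response; inconclusive means results disagree or hit not tested in dose response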;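 further: Vif residues 1-94 fused to GST binding biotinylated APOBEC3G peptide 110-148; 0% = full assay without inhibitor and 100% = GST in place of GST-Vif; retest series ran down from 100 µM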
FGF22 binding: shifts melting point of recombinant human FGF22; Q9HCT0; recombinant FGF22 thermal shift, SYPRO orange fluorescence; percent of sucrose octasulfate shift, DMSO zero; calls only at 9.99 µM; hit rate 1.5% among 340,000; AID 651658;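 active means melting point raised past a set limit in the mean and every replicate; inconclusive means no clear call; three in four hits are not shown here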
Target sequence (Q9HCT0 whole entry, looked up): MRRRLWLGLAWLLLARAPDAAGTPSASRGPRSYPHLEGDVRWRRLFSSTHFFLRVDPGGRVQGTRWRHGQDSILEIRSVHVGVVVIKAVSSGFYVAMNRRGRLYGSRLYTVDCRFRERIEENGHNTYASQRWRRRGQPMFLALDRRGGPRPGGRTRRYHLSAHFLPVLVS
HNF4A DNA FP: change in binding of human HNF4 alpha to DNA | hit rate 0.3% among 360,000 | P41235 | HNF4a-FITC DNA binding, fluorescence polarization, 1 h | activity change, % at 10 µM; in the data active means activity change above about 30%, passing the limit was not always enough;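 further: controls were the assay level and a saturating level of protein; the project sought stronger binding though the title names inhibitors; some compounds called inactive have numbers as strong as hits; positive values seem to mean higher polarization but the record does not say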
Ecoli rRNA inh: selective bacterial rRNA inhibition in E. coli. GFP signal change (wild-type ribosome), % (test concentration not listed). hit rate 1.6% among 350,000. AID 720706. E. coli WT GFP vs humanized-ribosome RFP mutants, fluorescence, 24 h; hits give low values; DMSO median 0, no signal -100;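 active means significant combined selectivity score with lowered wild-type GFP, culture density cut under 30%, mutant RFP and density less affected; inactive means any of these conditions unmet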; further: one replicate is shown; some compounds called inactive have numbers as strong as hits
MLL AF4-AF9 inh: blocks AF4 peptide binding to human AF9; AlphaScreen, biotin-AF4 peptide binding to FLAG-AF9; P42568; hit rate 0.47% among 350,000; inhibition, % at 10 µM;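 active means every replicate reaching a set inhibition limit, whatever the replicate mean, cut at about 25% in these data; inconclusive means mean inhibition reaches that limit but some replicates miss it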;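 further: 0% = plate neutral control median and 100% = total signal loss; the record names both 10 and 1 µM as test concentration; the first replicate is given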
Target sequence (P42568 whole entry, looked up): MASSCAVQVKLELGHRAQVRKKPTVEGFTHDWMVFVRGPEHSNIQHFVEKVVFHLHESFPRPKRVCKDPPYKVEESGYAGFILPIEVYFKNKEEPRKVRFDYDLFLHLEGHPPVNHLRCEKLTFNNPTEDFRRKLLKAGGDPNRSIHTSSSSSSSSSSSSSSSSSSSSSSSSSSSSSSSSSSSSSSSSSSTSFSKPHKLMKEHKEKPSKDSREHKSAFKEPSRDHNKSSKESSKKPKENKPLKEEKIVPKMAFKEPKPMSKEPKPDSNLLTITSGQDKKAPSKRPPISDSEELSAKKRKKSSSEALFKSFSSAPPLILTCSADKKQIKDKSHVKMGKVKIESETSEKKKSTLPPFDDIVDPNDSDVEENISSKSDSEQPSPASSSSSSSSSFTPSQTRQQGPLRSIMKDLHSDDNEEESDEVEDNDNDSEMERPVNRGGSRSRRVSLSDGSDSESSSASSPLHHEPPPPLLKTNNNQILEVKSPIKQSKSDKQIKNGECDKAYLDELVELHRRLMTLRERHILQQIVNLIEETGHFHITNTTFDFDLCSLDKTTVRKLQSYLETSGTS
Ecoli growth: blocks Escherichia coli growth. OD600, 23 h; hits give low values. OD600 absorbance (no concentration beside the values). hit rate 0.21% among 330,000;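 active means OD600 absorbance below the run mean of sample wells minus 3.6 SD, in any replicate, cut at about 0.56 in these data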;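 further: stock transfer was 300 nL into about 60 µL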
Ecoli rRNA inh OD600: recorded beside Ecoli rRNA inh, whose call it bears; OD600 change, %; measured here: OD600 growth;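 optical density of the mix in the first replicate; 0 = DMSO median and -100 = no signal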
Ecoli rRNA inh RFP: further read-out of Ecoli rRNA inh, marked with its call; RFP signal change, %; measured here: RFP humanized mutant strains;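 first replicate; 0 = DMSO median and -100 = no signal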
An asterisk follows results filed as active; i = inactive; u = inconclusive; x = no result given; & = joins results of further samples.

SMILES	ALR H2O2 inh	Vif TR-FRET	FGF22 binding	HNF4A DNA FP	Ecoli rRNA inh	Ecoli rRNA inh OD600	Ecoli rRNA inh RFP	MLL AF4-AF9 inh	Ecoli growth
O=C(Nc1ccc(NC(=O)N2CCN(c3ccccc3O)CC2)cc1)N1CCN(c2ccccc2O)CC1	2	x	i	-3.4	-20*	-1.6*	-5.4*	2.2	0.67
COc1ccc2c(c1OC)C(=O)N1N=C(c3ccc(Br)cc3)CC21 (centres undefined)	-3	x	x	-0.5	x	x	x	x	0.63
COC(=O)C(CC(=O)c1cccc(OC)c1)c1ccc(F)cc1 (centres undefined)	-2	-2%	i	1.8	-25	-28	-5.9	-0.5	0.69
CC(C)NC(=O)Nc1ccc2c(c1)C(=O)N([C@@H](C)CO)C[C@H](C)[C@@H](CN(C)C(=O)Nc1ccc(F)cc1)OCCCC[C@@H](C)O2	x	x	i	x	2	3	-1.6	-1.5	x
COc1ccc2c3c(n(C)c2c1)[C@H](CO)NCC31CN(CC2CCOCC2)C1	x	x	i	x	4	31	-1.3	35*	x
C=CCNC(=O)c1ccc(Cn2cc(C(F)(F)F)ccc2=O)cc1	-10	-17%	i	-2.4	4	11	0.3	-1.3	0.69
CCOc1ncccc1C(=O)Nc1cc(S(=O)(=O)N2CCCCCC2)ccc1OC	x	0%	i	1.2	1	-3	-2.5	-8.5	0.72
CN1CCCC(OC(=O)c2cccc(S(=O)(=O)N3CCCCCC3)c2)C1 (centres undefined)	-5	9%	i	2.1	8	-1	-2.1	-11	0.66
O=C(c1cc([N+](=O)[O-])ccc1Cl)N1CCN(Cc2ccc3c(c2)OCO3)CC1	-39	x	i	2.9	-4	-11	-8.0	4.1	0.7
COc1ccc(NC(=O)N2CC[C@@H]3[C@@H](CO)N(C)c4ccc(-c5cccc(C(=O)N(C)C)c5)cc4[C@@H]32)cc1	x	x	i	x	0	5	3.6	-3.3	x
O=C(Nc1cccc(Cl)c1)c1cnc[nH]1	-23	-12%	i	0.2	-4	1	2.7	-13	0.66
NC(=O)NC(c1ccc(Cl)cc1)c1ccccc1Cl (centres undefined)	-2	-8%	i	1.0	-35*	-18*	-6.0*	-4.6	0.65

Part of the list above in a different format:
molecule,ALR H2O2 inh,Vif TR-FRET,FGF22 binding,HNF4A DNA FP,Ecoli rRNA inh,Ecoli rRNA inh OD600,Ecoli rRNA inh RFP,MLL AF4-AF9 inh,Ecoli growth
O=C(c1cc([N+](=O)[O-])ccc1Cl)N1CCN(Cc2ccc3c(c2)OCO3)CC1,-39,x,i,2.9,-4,-11,-8.0,4.1,0.7
COc1ccc(NC(=O)N2CC[C@@H]3[C@@H](CO)N(C)c4ccc(-c5cccc(C(=O)N(C)C)c5)cc4[C@@H]32)cc1,x,x,i,x,0,5,3.6,-3.3,x
O=C(Nc1cccc(Cl)c1)c1cnc[nH]1,-23,-12%,i,0.2,-4,1,2.7,-13,0.66

Carrying on.
SMILES	ALR H2O2 inh	Vif TR-FRET	FGF22 binding	HNF4A DNA FP	Ecoli rRNA inh	Ecoli rRNA inh OD600	Ecoli rRNA inh RFP	MLL AF4-AF9 inh	Ecoli growth
C[C@@H]1CN([C@H](C)CO)C(=O)c2cc(/C=C/c3ccccc3)cnc2O[C@@H]1CN(C)S(=O)(=O)c1ccc(F)cc1	x	x	i	x	1	6	0.1	9.6	x
O=C(CSc1ccc(-c2ccco2)nn1)NC1CCCCC1	u	-2%	i	-11	2	-4	3.3	-0.5	0.71
CS(=O)(=O)N(CC(=O)Nc1ccccc1)c1cccc(Cl)c1Cl	6	x	i	-2.1	-7	-14	-0.5	-3.2	0.7
O=C(C[C@H]1CC[C@@H]2[C@H](COC[C@H](O)CN2Cc2nccs2)O1)NCc1ccccc1Cl	x	x	i	2.4	0&2	-3&3	-2.3&2.2	0.2	x
O=C(Nc1ccc(Cl)cn1)c1ccc(COc2ccccc2Br)o1	-2	x	i	1.8	-27	-34	-2.9	-3.5	0.67
Cc1cccc(C)c1NC(=O)NCc1ccco1	7	u	i	-2.3	6	10	-0.4	-3.0	0.68
CN(CCO)c1ccc(-c2n[nH]c(=O)c3ccccc23)cc1[N+](=O)[O-]	-2	x	i	-3.6	-11	-19	0.0	2.5	0.7
COc1ccc(C(=O)Nc2nncs2)cc1S(=O)(=O)N1CCOCC1	3	x	i	2.3	4	0	-0.8	-0.6	0.68
O=C(CCCn1c(=S)[nH]c2cc3c(cc2c1=O)OCO3)N1CCN(c2ccccc2)CC1	8	-23%	x	1.0	x	x	x	x	0.64
CCC(C)NC(=O)CSc1nc2ccccc2c(=O)n1-c1c(C)n(C)n(-c2ccccc2)c1=O (centres undefined)	-3	-1%	i	-2.2	11	10	-2.0	-2.0	0.73
O=C(NCCCNC(=O)c1ccc(-c2cccc(Cl)c2)o1)c1cnccn1	-1	x	i	1.5	-8	-1	-4.2	-2.7	0.71
Cc1c(C(=O)Oc2ccc(-c3cnc4ccccc4n3)cc2)cccc1[N+](=O)[O-]	3	5%	x	-1.2	x	x	x	x	0.73
CCC(CC)NC(=O)c1nn(Cc2ccccc2)c(=O)c2ccccc12	x	x	i	5.4	1	2	-1.9	0.8	0.68
COc1cccc(-c2ccc3c(c2)[C@H]2[C@H](CCN2C(=O)c2ccc4c(c2)OCO4)[C@H](CO)N3C)c1	x	x	i	x	2	8	-4.0	-0.7	x
CN(C)CC#Cc1ccc([C@@H]2[C@@H](CO)N3CCCCN(C(=O)c4ccc5c(c4)OCO5)C[C@@H]23)cc1	x	x	i	x	2	5	-2.7	-3.0	x
OC(c1cccc(Cl)c1)c1nc(-c2cc3ccccc3o2)cs1 (centres undefined)	x	x	i	-2.5	-52	-77	-11	1.1	x
CCN1CCN(CC(O)COCCOc2ccc(Br)cc2)CC1 (centres undefined)	x	-9%	x	-0.1	x	x	x	x	0.71
O=C(Nc1ccc(Br)c(Br)c1)C1CCCO1 (centres undefined)	-3	x	i	-1.7	-12	-18	-5.3	-1.4	0.65
CCN1CCN(C(=O)C2CCN(C(=O)c3cc4sccc4n3CC)CC2)CC1	-38	0%	i	0.7	2	7	-2.2	3.7	0.72
CC(C)(C)c1nc(S(=O)(=O)c2ccc(Cl)cc2)c(N2CCOCC2)o1	20	7%	x	2.6	x	x	x	x	0.68
O=C(CC1C(=O)NCCN1C(=S)Nc1ccccc1)Nc1ccc(F)cc1 (centres undefined)	-1	15%	i	-1.1	12	9	-4.6	-15	0.7
CC(C)(C)c1ccc(C(=O)Nc2cccc(S(=O)(=O)NC3=NCCC3)c2)cc1	46	-13%	i	-0.4	1	-41	-9.5	-1.9	0.68
Cc1ccc(S(=O)(=O)N2CCC(C(=O)NCC3CCCO3)CC2)cc1 (centres undefined)	-10	5%	x	2.1	x	x	x	x	0.7
COc1ccccc1NC(=O)C1CCCN(c2ncnc3c2nc2n3CCCCC2)C1 (centres undefined)	8	x	i	-0.1	-33*	-23*	-2.5*	0.5	0.66
CCOc1ccc(NC(=O)C23CC4CC(C2)CC(c2ccccc2)(C4)C3)cc1	x	0%	x	-3.4	x	x	x	x	0.75
COc1ccc(OC)c(-c2nn(-c3ccccc3)cc2C(=O)N2CCc3ccccc3C2)c1	0	-16%	i	-0.2	-16*	-6.3*	5.6*	6.8	0.7
Cn1c(O)c(N=NC(=O)c2ccco2)c2ccccc21	2	5%	i	-11	2	6	-2.5	1.1	0.7
OC(c1cc(-c2ccc(C(F)(F)F)cc2)nc(C(F)(F)F)c1)C1CCCCN1 (centres undefined)	x	-5%	i	-1.2	-56	-83	-19	6.9	0.49*
O=C(CN(CCc1ccccc1)Cc1ccccc1)Oc1ccccc1P(=O)(O)O	-1	-3%	i	-0.5	5	12	-0.3	-1.7	0.7
CSc1ccc(C(=O)C2CCCN(C(=O)c3ccc(C)nc3)C2)cc1 (centres undefined)	-3	u	i	2.8	-24	-29	-2.2	2.2	0.69
COc1ccccc1CNC(=O)C[C@@H]1CC[C@H]2[C@@H](COC[C@H](O)CN2C(=O)Nc2ccc(Cl)cc2)O1	x	x	i	x	-19	-26	-2.0	-0.5	x
Cc1ccc(N=C/C(C(=O)C(F)(F)F)=C(\O)c2ccco2)cc1Cl	46	x	x	1.6	x	x	x	x	0.67
Cc1cc(C)n(C(=O)c2sc3cc(F)ccc3c2Cl)n1	-4	-64%	x	x	x	x	x	x	0.68
CCOc1ccc(S(=O)(=O)NCCCN2CCOCC2)c2ccccc12	-4	u	x	2.4	x	x	x	x	0.71
CCn1ncc(CN2CCN(C(=O)Nc3ccccc3C(=O)OC)CC2)c1C	3	-3%	x	2.8	x	x	x	x	0.67
CCc1nnc(NC(=O)C(=O)NCCOC(=O)c2ccccc2Cl)s1	-4	u	x	3.5	x	x	x	x	0.69
NC(=O)Cn1nc([N+](=O)[O-])nc1Oc1ccc(Br)cc1	x	x	i	3.8	-4	6	-2.4	-0.7	0.73
O=S(=O)(Nc1ncccn1)c1ccc(NC(=S)Nc2ccc(Cl)cc2)cc1	0	x	i	1.0	-49	-70	-24	9.7	x
CCC(=O)Nc1ccc2c(c1)C(=O)N(C)[C@H]1CC[C@@H](CC(=O)N[C@@H](C)c3ccccc3)O[C@H]1CO2	x	x	i	x	-3	-4	1.8	-0.2	x
C/C=C/c1ccc([C@@H]2[C@H](C#N)N(c3nc(CC)cs3)[C@H]2CO)cc1	x	x	i	x	-1	-32	-2.4	1.9	x
CO[C@@H](CN(C)CC1CCOCC1)[C@@H](C)CN(C(=O)Nc1ccc(F)cc1)[C@H](C)CO	x	x	i	x	6	11	-4.6	1.2	x
O=C(c1ccco1)N1CCN(Cc2cc(=O)c(OCc3ccccc3Cl)co2)CC1	-2	-9%	x	2.9	9	10	1.5	0.4	0.63
Cc1[nH]c2ccc(C(=O)NCC(C)(C)N3CCOCC3)cc2c1C	2	1%	i	-1.9	-1	1	-0.2	-0.2	0.69
O=C(NCC(c1ccco1)N1CCc2ccccc2C1)c1ccccc1 (centres undefined)	-8	7%	i	1.1	4	5	4.3	3.1	0.68
CN1C(=O)c2cc(NC(=O)C3CC3)ccc2OC[C@H]2O[C@@H](CC(=O)NC3CCC3)CC[C@H]21	x	x	i	x	5	6	-1.9	-1.8	x
O=C(CSc1ccccc1)N1CCc2ccccc21	-11	-7%	x	-1.7	x	x	x	x	0.75
CN(CCc1ccccc1)C(=O)c1cccc(NC(=O)Cc2ccc([N+](=O)[O-])cc2)c1	1	x	i	3.5	-6	-14	-3.4	6.6	0.58
COC(=O)c1c(C)oc(C)c1S(=O)(=O)N(Cc1ccccc1)C(C)C	-1	18%	i	2.0	-17	-18	-2.6	-1.1	0.7
CC(C)c1nnc(NC(=O)CCC2CCCCC2)s1	3	x	i	-0.1	24	19	1.5	-6.6	0.71
COc1cccc(/C=N/NC(=O)c2cccs2)c1	0	x	i	0.2	1	12	-3.4	-1.3	x
O=C(C[C@H]1CC[C@@H](NS(=O)(=O)c2ccccc2)[C@@H](CO)O1)NCc1ccc(Cl)c(Cl)c1	x	x	i	5.9	-21	-32	3.5	1.7	x
C/C(=N\NC(=O)c1ccccc1O)c1ccc(NC(=O)c2ccccc2)cc1	-1	17%	i	0.3	3	6	-4.0	1.7	x
COc1ccc(NC(=O)Nc2ccncc2)c(OC)c1	-24	14%	i	-2.2	-9	-8	-5.3	1.7	0.69
COc1ccc(Cn2nnnc2CN2CCC(O)(c3ccccc3F)CC2)cc1	8	4%	i	-0.7	0	6	0.3	-3.8	0.74
C[C@H]1CN([C@@H](C)CO)C(=O)CCCn2cc(nn2)CO[C@H]1CN(C)Cc1ccccc1C(=O)O	x	x	i	x	-2	8	0.0	-0.7	x

Some of the compounds tested; rates above refer to the full screens.
